Screens as filed in PubChem.
Env fusion inh – inhibitors of HIV Env-mediated cell fusion; HeLa-JRFL Env/CEM21 cell fusion, luciferase; inhibition, % at 12.3 µM; 360,000 tested, 1.1% active;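 active means mean replicate inhibition score of at least 50 and every replicate individually at or above 50; inconclusive means only one of the two criteria met; inactive means mean below 50 and not all replicates reaching 50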;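 further: 0% = plate neutral controls and 100% = maraviroc near 300 nM; one replicate is shown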
eIF4H FP inh – inhibitors of RNA binding by human eIF4H; Q15056; eIF4H fluorescence polarization binding assay; inhibition, % at 35 µM; 290,000 tested, 0.94% active; AID 2012;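 active means 50% or more with normal probe brightness, or confirmed in later tests; inconclusive means above 50% with abnormal brightness, or retests that disagree; inactive means below 50% or failed in later tests; about a fifth of its hits are not listed in these tables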;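 further: calls also rest on retests at 20 µM and on dose response follow-up; 0% = protein and probe with vehicle and 100% = probe without protein; strong numbers were not always called active; many hits fall short of the cut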
MT1-MMP act inh – blocks activation of human MT1-MMP; P50281; HT1080 RFP-PRO-GFP cells, GFP/RFP ratio fluorescence, overnight; percent of plate control window, DMSO zero; GFP/RFP ratio change, % at 20 µM; 360,000 tested, 0.061% active; AID 651647;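 active means GFP/RFP ratio change of at least 30% with cell ATP level not reduced by more than half and red fluorescence within 50% of control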; further: strong numbers were not always called active
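Read-out: GFP/RFP fluorescence ratio; Test system: RFP-PRO-GFP reporter HT1080 cells; Compound dosing: single-point 20 µM compound, 1% DMSO; Times: overnight compound exposure at 37 °C.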
PABP FP inh – PABP-poly(A) binding inhibition; inhibition, % at 35 µM; AID 2014; 290,000 tested, 1% active; PABP-poly(A) RNA binding, fluorescence polarization; P11940;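 active means 50% or more with normal probe brightness, or confirmed in later tests; inconclusive means above 50% with abnormal brightness, or retests that disagree; inactive means below 50% or failed in later tests; about a fifth of its hits are not listed in these tables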;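 further: calls also rest on retests at 20 µM and on dose response follow-up; controls were probe without protein and protein plus probe with vehicle; some compounds called inactive have numbers as strong as hits; many hits fall short of the cut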
Target sequence (P11940 whole entry, looked up): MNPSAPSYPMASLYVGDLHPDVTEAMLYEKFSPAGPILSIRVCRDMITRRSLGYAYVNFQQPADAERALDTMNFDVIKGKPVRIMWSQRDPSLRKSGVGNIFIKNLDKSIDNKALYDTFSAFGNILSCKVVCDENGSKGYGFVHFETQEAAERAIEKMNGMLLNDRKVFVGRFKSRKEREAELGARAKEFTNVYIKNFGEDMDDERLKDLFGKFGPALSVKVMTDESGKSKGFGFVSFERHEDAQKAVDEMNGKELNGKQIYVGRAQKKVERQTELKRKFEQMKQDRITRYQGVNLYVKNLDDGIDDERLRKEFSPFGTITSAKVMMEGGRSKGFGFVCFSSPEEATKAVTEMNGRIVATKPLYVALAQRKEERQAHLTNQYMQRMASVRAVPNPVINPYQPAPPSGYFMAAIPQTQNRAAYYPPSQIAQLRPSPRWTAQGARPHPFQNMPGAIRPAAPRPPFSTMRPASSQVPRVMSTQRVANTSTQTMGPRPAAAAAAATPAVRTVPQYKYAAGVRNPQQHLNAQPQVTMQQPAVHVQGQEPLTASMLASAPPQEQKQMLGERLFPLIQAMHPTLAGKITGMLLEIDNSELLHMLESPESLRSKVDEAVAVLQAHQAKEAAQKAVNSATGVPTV
Rce1 inhib – inhibitors of yeast Ras-converting enzyme. Q03530. yeast membranes, quenched prenylated peptide cleavage fluorescence. calls only. 290,000 tested, 0.27% active. AID 2563;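 active means fall in fluorescence gain of 50% or more versus controls, with final raw signal at or below 3038400; inconclusive means same 50% fall but final raw signal above 3038400; inactive means fall in fluorescence gain under 50%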;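 further: plate controls were neutral control wells for no effect and wells lacking membranes for full effect; tested at 10 µM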
Yeast UUG start – alters start codon recognition fidelity in yeast. S. cerevisiae UUG-firefly luciferase reporter, luminescence/redox ratio. activity score, % at 18.7 µM. 350,000 tested, 0.13% active. AID 602363;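 active means replicate mean at a twofold rise or more, about +100% in these data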;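 further: firefly luciferase made from a UUG start codon reports start codon fidelity; reporter light over untreated wells divided by growth signal over untreated wells; some hits fall short of that in this replicate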
CSC inhib – blocks cancer stem cells. cancer stem cell-like cells viability, luminescence. 300,000 tested, 1.1% active. inhibition, % at 7.5 µM. AID 2717;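 active means mean at 75% or more and at least half the replicates too; inconclusive means mean and replicates disagree; tested in HMLE shEcad cells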;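 further: 0% = median of negative and 100% = median of positive control wells; the first replicate is given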
eIF4H FP inh retest – further read-out of eIF4H FP inh, marked with its call; inhibition, %; compound at 20 µM; confirmation average;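 mean of two retest wells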
PABP FP inh retest – also measured in PABP FP inh; calls as there; inhibition, %; compound at 20 µM; confirmation repeats;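 mean of two retest wells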
MT1-MMP act inh RFP – second read-out of MT1-MMP act inh, no call of its own (marks repeat the call); RFP signal change, %; measured here: RFP expression control read;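 0 = vehicle wells; hits needed this value within 50% of zero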
Active calls of the source: *; i = inactive; ? = inconclusive; · = no result given.

SMILES | Env fusion inh | eIF4H FP inh | MT1-MMP act inh | MT1-MMP act inh RFP | PABP FP inh | Rce1 inhib | Yeast UUG start | CSC inhib | others
C=Cc1ccc(Cn2c(C)c(C(=O)NCc3cccc(C(F)(F)F)c3)sc2=O)cc1 | 12 | · | 5 | -1 | · | · | -5 | ·
CN(c1ccc(C(=O)Nc2ccccc2C(F)(F)F)cc1)S(C)(=O)=O | · | 4 | 2 | 4 | -3 | i | -1 | 11
Cc1ccc(NC(=O)c2ccc(NCCN)c([N+](=O)[O-])c2)cc1 | -12 | 29 | 8 | 3 | 8 | i | · | -8
CC1(C)CC(=O)C2=C(C1)c1c(ccc3ccccc13)NC2c1ccco1 (stereo not given) | · | 10 | -16 | -13 | 0 | i | -14 | 21
OCC1(Cc2ccccc2)CCN(Cc2ccccn2)CC1 | -75 | 6 | 4 | 1 | 8 | i | · | 8
COc1ccc(Cn2cccc(NC(=O)Nc3cccc(C#N)c3)c2=O)cc1 | 15 | -5 | -34 | -35 | 3 | i | -28 | -3
CCc1ccccc1Nc1nc(N)nc(COC(=O)CCS(=O)(=O)c2ccccc2)n1 | -10 | · | 0 | 1 | · | i | · | 10
Clc1cccc(-c2ccnc3nc(-n4cccc4)nn23)c1 | -109 | -1 | -5 | -1 | -8 | i | · | -7
CCOC(=O)c1ccc2c(c1)nc(-c1ccccn1)n2CC | -166 | -2 | -4 | 0 | 5 | i | -34 | -10
Cn1cc([N+](=O)[O-])c(C(=O)N2CCN(Cc3ccc4c(c3)OCO4)CC2)n1 | 2 | -6 | · | · | 1 | i | -7 | 18
COc1ccc(OC)c(NC(=O)CCCN2C(=S)NC(C)(C)CC2C)c1 (stereo not given) | 18 | -11 | -4 | 0 | -4 | i | · | -6
COc1ccc(-c2csc(Nc3cccnc3)n2)cc1 | · | 1 | 7 | -5 | 3 | i | · | -8
COc1ccc(NC(=O)c2c(NC(=O)CNCc3ccco3)sc3c2CCC3)c(OC)c1 | · | 5 | 2 | 1 | -11 | i | · | -5
CCn1cc(C(c2ccccc2)C(C(C)=O)[N+](=O)[O-])c2ccccc21 (stereo not given) | 10 | -10 | -7 | -4 | -6 | i | -12 | 20
O=C(CCNS(=O)(=O)c1ccc(OC(F)(F)F)cc1)NC1CC1 | -2 | · | 2 | 1 | · | · | -21 | 7
Fc1ccccc1NC(=S)N1CCOCC1 | -4 | 0 | -4 | 1 | 11 | i | -11 | -2
O=C(CN(Cc1ccccc1)C(=O)CNS(=O)(=O)c1ccccc1)NCc1ccco1 | -9 | -16 | 1 | 4 | 5 | i | -10 | -8
O=c1c2c(-c3ccccc3)csc2ncn1/N=C/c1ccc(O)c([N+](=O)[O-])c1 | 8 | 1 | 4 | 2 | -8 | i | · | -15
CN(C)Cc1ccc(-c2nc3cccc4c3n2CCNC4=O)cc1 | 9 | · | -12 | -1 | · | i | -8 | 0
COc1cc(/C=C2/NC(=O)NC2=O)ccc1OCC(=O)Nc1ccc(F)cc1 | 30 | -4 | 5 | 2 | 1 | i | -1 | 9
C(=C\c1ccccc1)/C=N/Nc1ccc2nncn2n1 | · | 0 | · | · | -1 | i | · | 2
CC1=C(O)C(=O)C(c2c(C)cc(C)c(Br)c2C)=C(O)C1=O | 16 | · | 9 | 3 | · | · | -12 | ·
C=CCc1ccc(OCCOc2ccc(/C=N/n3cnnc3)cc2OCC)c(OC)c1 | · | -9 | 1 | -1 | -2 | i | -11 | -2
CS(=O)(=O)N1CCN(C/C=C/c2ccccc2)CC1 | 29 | 3 | 1 | 0 | -7 | · | · | -4
COc1cccc(-n2c(SCC(=O)Nc3nccs3)nnc2-c2ccoc2C)c1 | · | -7 | -4 | -3 | -6 | i | -16 | -10

New compounds follow
SMILES | Env fusion inh | eIF4H FP inh | MT1-MMP act inh | MT1-MMP act inh RFP | PABP FP inh | Rce1 inhib | Yeast UUG start | CSC inhib | others
COc1ccc([C@H]2C[C@@H](O)[C@H](n3cc(C4CC4)nn3)CN2C(=O)c2cccs2)cc1 | -13 | · | 1 | 1 | · | · | -8 | ·
COc1ccc(CNC(=O)C(c2ccncc2)N(C(=O)Cc2cccs2)c2ccccc2C)cc1 (stereo not given) | -9 | 0 | -3 | -2 | 7 | i | -17 | 25
CCCCc1nnc(SCC(=O)NC2CCCCC2)n1C | 6 | -12 | 1 | 5 | -4 | i | -6 | 7
COc1cccc(/C=N/NC(=O)CCc2c(C)n[nH]c2C)c1O | 9 | 6 | 5 | 5 | -4 | i | · | 4
Cc1nc2cc3c(cc2s1)OCO3 | 13 | 2 | 1 | 3 | 12 | i | -14 | -6
Cc1ccc(C)c(N2CCN(C(=O)c3ccc4nc(N5CCOCC5)sc4c3)CC2)c1 | 2 | -2 | 0 | -5 | -3 | i | -16 | 3
C#CCOCCOCCOCCNc1nc(N2CCN(C(=O)[C@H](CCCCN)n3cc([C@@H](N)CO)nn3)CC2)nc(N2CCN(C(=O)[C@H](Cc3cc4ccccc4[nH]3)n3cc([C@@H](N)CO)nn3)CC2)n1 | · | 26 | · | · | 23 | · | · | -17
COC(=O)c1ccc(-n2cnc(Cl)n2)c(F)c1 | · | -6 | -6 | 2 | -12 | i | · | -5
CSCCOC(=O)C1=C(C)NC(=O)CC1c1ccccc1Cl (stereo not given) | · | 0 | 4 | 0 | 2 | i | 5 | -5
O=C(c1ccco1)N1N=C(c2cccs2)CC1c1ccc(F)cc1 (stereo not given) | 25 | 4 | -2 | -3 | 5 | i | -13 | -2
Oc1ccc(CNc2ccccc2)c2cccnc12 | · | 20 | -9 | -7 | 3 | · | -26 | 19
CSc1cccc(NC(=S)N(CCCN2CCCC2)Cc2cccn2Cc2ccc(Cl)cc2)c1 | -40 | -6 | -8 | -13 | -7 | i | -27 | 33
CCCOc1ccc2cc(C(=O)NCc3ccccc3)c(=O)oc2c1 | -1 | -2 | 2 | 2 | 6 | i | -16 | 2
c1ccc2c(c1)N1CCN=C1N2CCN1CCCCC1 | · | -10 | 0 | 1 | 16 | i | 6 | -5
CCCCC(=O)Nc1ccc2c(c1)nc(CCN1CCOCC1)n2C | 6 | -1 | 6 | 8 | 7 | i | -22 | -4
COc1ccc(N(C(=O)/C=C/c2ccccc2)C2=CC3CCC(C2)N3C)cc1 (stereo not given) | 16 | 3 | -2 | 1 | -10 | i | 6 | 0
CC1(C)CC(=O)c2c(nn(-c3ccccc3)c2N)C1 | 42 | -3 | 0 | -1 | 2 | i | -21 | -9
Cc1cc(=O)n2nc(N3CCC(C(=O)NCc4cccc(Cl)c4)CC3)sc2n1 | -5 | -2 | 1 | 2 | 0 | i | -14 | -16
Cc1ccc(Cn2ncc3c(NCCCN(C)C)ncnc32)cc1 | -7 | 12 | -2 | 1 | 8 | i | -13 | -7
COc1ccc(N=Cc2nc(-c3ccccc3)oc2OC(C)=O)cc1 | -50 | 3 | 0 | 4 | -9 | i | -5 | 2
COc1ccc(Br)cc1/C=N/NC(=O)CNC(=O)/C=C/c1ccccc1 | · | 3 | 1 | -2 | -8 | i | -5 | 2
Cc1ccc(-c2nc(-c3ccccc3)no2)c(Cl)c1 | 1 | 3 | 0 | 1 | 11 | i | -85 | 6
COc1ccccc1Nc1nc(N)nc(CSC(=S)N2CCC(C)CC2)n1 | 23 | -4 | -2 | 0 | -1 | i | -24 | 19
O=C(CCC(=O)OCC(=O)c1ccccc1)NC1CCCCC1 | · | 4 | -5 | 1 | -7 | i | -11 | -11
O=C(CN1CCN(S(=O)(=O)/C=C/c2ccccc2)CC1)NCC(F)(F)F | 1 | -13 | -1 | 1 | -2 | i | -20 | -2

The list goes on.
SMILES | Env fusion inh | eIF4H FP inh | MT1-MMP act inh | MT1-MMP act inh RFP | PABP FP inh | Rce1 inhib | Yeast UUG start | CSC inhib | others
Cc1cccc(C(=O)N2CCN(S(=O)(=O)N3CCCCCC3)CC2)c1 | 20 | -2 | 0 | 1 | -7 | i | -3 | ·
COc1ccc(/C=C2/C(=O)N(c3ccccc3)N=C2C)cc1Br | -54 | -5 | 7 | 8 | 9 | i | -7 | 22
O=[N+]([O-])c1ccc(Sc2cccc[n+]2[O-])c2nonc12 | -130 | 112 | -130 | 2 | 65 | i | · | · | eIF4H FP inh retest=-3;PABP FP inh retest=6
Cc1cc(=O)[nH]c(SCC(=O)N2CCN(S(=O)(=O)c3ccccc3)C2)n1 | 2 | 8 | 0 | 4 | 2 | i | · | -4
O=C(O)c1ccc2cc(-c3ccccc3)[nH]c2c1 | 31 | · | 1 | 3 | · | ? | -48 | 2
O=C(c1ccc(F)cc1)N1CCN(c2ccc([N+](=O)[O-])cc2-n2cccc2)CC1 | 11 | 7 | 4 | 2 | 8 | i | 21 | -9
Cc1scc(C(=O)N/N=C/c2ccc([N+](=O)[O-])o2)c1C | -32 | 24 | -2 | -12 | 17 | i | 0 | ·
CC1Sc2ccc(S(=O)(=O)CCC(=O)Nc3ccc(C(C)C)cc3)cc2NC1=O (stereo not given) | -2 | -8 | 6 | -14 | 11 | i | -14 | -13
COc1ccccc1NC(=O)c1ccc2nsnc2c1 | -12 | -2 | -2 | -2 | -4 | i | 3 | -3
O=C1C=C(c2ccoc2)N2CCC[C@H]2C1 | · | · | -8 | -1 | · | · | -2 | -7
Cc1cccc(NCc2nc(SCC(=O)Nc3ccccc3Br)n[nH]2)c1 | 4 | -3 | 6 | -1 | -13 | i | -22 | 8
N#CC1=C(N)Oc2c(oc(CO)cc2=O)C1c1cccs1 (stereo not given) | 7 | 26 | -3 | 5 | 26 | i | -1 | -2

Of the compounds above, these have fluorine.
SMILES | Env fusion inh | eIF4H FP inh | MT1-MMP act inh | MT1-MMP act inh RFP | PABP FP inh | Rce1 inhib | Yeast UUG start | CSC inhib | others
C=Cc1ccc(Cn2c(C)c(C(=O)NCc3cccc(C(F)(F)F)c3)sc2=O)cc1 | 12 | · | 5 | -1 | · | · | -5 | ·
CN(c1ccc(C(=O)Nc2ccccc2C(F)(F)F)cc1)S(C)(=O)=O | · | 4 | 2 | 4 | -3 | i | -1 | 11
O=C(CCNS(=O)(=O)c1ccc(OC(F)(F)F)cc1)NC1CC1 | -2 | · | 2 | 1 | · | · | -21 | 7
Fc1ccccc1NC(=S)N1CCOCC1 | -4 | 0 | -4 | 1 | 11 | i | -11 | -2
COc1cc(/C=C2/NC(=O)NC2=O)ccc1OCC(=O)Nc1ccc(F)cc1 | 30 | -4 | 5 | 2 | 1 | i | -1 | 9
COC(=O)c1ccc(-n2cnc(Cl)n2)c(F)c1 | · | -6 | -6 | 2 | -12 | i | · | -5
O=C(c1ccco1)N1N=C(c2cccs2)CC1c1ccc(F)cc1 (stereo not given) | 25 | 4 | -2 | -3 | 5 | i | -13 | -2
O=C(CN1CCN(S(=O)(=O)/C=C/c2ccccc2)CC1)NCC(F)(F)F | 1 | -13 | -1 | 1 | -2 | i | -20 | -2
O=C(c1ccc(F)cc1)N1CCN(c2ccc([N+](=O)[O-])cc2-n2cccc2)CC1 | 11 | 7 | 4 | 2 | 8 | i | 21 | -9

This is a random part of the collection; 2.9% or so of the library scored in one or more.
